GLA inh pH 4.5 = inhibitors of human alpha-galactosidase A at pH 4.5; purified enzyme, 4-MU-alpha-Gal fluorescence, pH 4.5; activity change, negative = inhibition, % at 105 µM; P06280; 230,000 tested, under 10 active; inconclusive = small, poorly fitted or top-dose-only inhibition, or a rising curve; inactive = flat fitted curve, though single readings scatter; no compound was filed as active;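 further: 0% = full activity with enzyme and -100% = basal without enzyme; dose as in the result columns while the protocol names 77 µM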
Target sequence (P06280 whole entry, looked up): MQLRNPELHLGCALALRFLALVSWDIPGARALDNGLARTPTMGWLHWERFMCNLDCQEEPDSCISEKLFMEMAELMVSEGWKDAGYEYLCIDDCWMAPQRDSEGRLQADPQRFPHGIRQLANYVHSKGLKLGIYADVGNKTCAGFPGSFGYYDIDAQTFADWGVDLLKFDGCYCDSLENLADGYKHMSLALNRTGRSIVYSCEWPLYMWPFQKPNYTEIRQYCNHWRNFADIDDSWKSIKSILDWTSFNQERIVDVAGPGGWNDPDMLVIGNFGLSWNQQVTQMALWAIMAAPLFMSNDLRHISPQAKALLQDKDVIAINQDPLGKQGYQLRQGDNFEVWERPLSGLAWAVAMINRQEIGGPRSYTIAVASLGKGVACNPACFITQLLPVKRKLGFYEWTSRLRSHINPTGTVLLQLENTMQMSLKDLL
Rango complex inh = prevents formation of the Rango-importin beta complex; AID 540263; hit rate 0.031% among 340,000; Potency, µM (highest dose often 92.2 µM), inactives show at the highest dose inhibition of complex formation; Rango CFP/YFP FRET sensor + importin beta, 45 min; Q14974; active = rising FRET ratio curve, often small or poorly fitted; inconclusive = mostly compound fluorescence or quenching in the first reads; inactive = flat curves in all reads;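 further: potency means the concentration at half of the fitted maximal effect; 0% = DMSO wells and 100% = buffer wells lacking importin beta; nearly all actives have a fitted effect of over 15% in size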
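Inhibition scored from the CFP 486 nm/YFP 530 nm FRET ratio 45 min after adding 0.125 microM importin beta to 50 nM Rango biosensor preincubated 5 min with compound (room temperature, PBS with DTT, Tween-20, BSA). No-importin wells as positive control.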
Rango dissoc inh = inhibitors of RanGTP-induced Rango-importin beta complex dissociation; hit rate 0.071% among 340,000; Potency, µM (top dose mostly 46.1 µM), without a hit: at the highest dose activity change, negative = inhibition; Biochemical FRET Rango-importin beta, RanGTP-induced dissociation; O95149+P62826; AID 540253; active means falling FRET ratio curve, often poorly fitted, with flat reads before Ran was added; inconclusive means other falling curves, or compound fluorescence or quenching; inactive means flat or rising ratio curve;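 further: potency means the concentration at half of the fitted maximal effect; % of control where 0% means no effect; nearly all actives have a fitted effect of over 45% in size; -100% = wells without RanGTP and RCC1; the record marks most hits as doubtful in a second field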
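Quantitative HTS using a FRET biosensor: 0.1 uM Rango, 0.25 uM importin beta, 0.6 uM Ran, 2 mM GTP, 0.2 uM RCC1 final, PBS with DTT, Tween-20 and BSA. Post-read taken 45 min after Ran addition.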
miR-21 reporter = miR-21 reporter, rising signal | Potency, µM (titrated, usually from 38.3 µM), inactives show top-dose reporter change, positive = more light | HeLa miR-21 FLuc reporter, luciferase, 48 h | 340,000 tested, under 10 active | AID 2288; active = well fitted rising curve with a large enough effect; inconclusive = small, poorly fitted or top-dose-only effect; inactive = no such curve, though single readings can be large or run the other way;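 further: % of control where 0% means no effect; miR-21 action dims this reporter so a rising signal means less miR-21 action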
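HeLa miR-21-FLuc reporter line, endogenous miR-21; 2000 cells/well in DMEM/10% FBS; compound titration up to ~40uM final, 48 h, 37 degree Celsius; luciferase detection reagent, 15 min lysis, CCD luminescence.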
* hit, by the source's call; ? = inconclusive; / = no result given; & = joins results of further samples. An excerpt; rates above refer to the full screens.

SMILES	GLA inh pH 4.5	Rango complex inh	Rango dissoc inh	miR-21 reporter
NCC(CC(=O)O)c1ccc(Cl)cc1 (stereo not given)	2&-15&-9&0	1.0%	-7%	-6%
CN1C(=O)/C(=C\c2ccc(Br)s2)C(=O)NC1=S	/	?	-19%	-7%
COC(=O)NC(=C(Cl)Cl)P(=O)(c1ccccc1)c1ccccc1	-2	-3.2%	-1%	8%
O=c1c(C=NCCN2CCNCC2)c(O)n(C2CCCCC2)c(=O)n1C1CCCCC1	10	-2.2%	0%	1%
CCOC(=O)C(O)(c1ccc(NC(=O)Oc2ccccc2)cc1)C(F)(F)F (stereo not given)	-2	0.9%	-11%	-1%
O=C(c1ccccc1F)c1cn(CC(=O)N2CCOCC2)c2ccccc12	4	-0.4%	3%	0%
CC1(c2ccc(Cl)cc2Cl)OCC(Cn2cncn2)O1 (stereo not given)	9	2.0%	-6%	-5%
COc1ccc(CN2CCNCC2)cc1	/	0.5%	33%	-3%
COC(=O)C1=C(c2ccc3ccccc3c2)C[C@@H]2CC[C@H]1N2C(=O)N1CCOCC1	/	-4.1%	6%	/
C=CCN1C(=O)/C(=C/c2ccc(N3CCOCC3)o2)C(=O)NC1=S	5	58µM*	1%	-8%
Cc1cc(OCC(=O)O)c2c3c(c(=O)oc2c1)CCCC3	4	1.5%	11%	-4%
CCOC(=O)CC1c2ccccc2-n2nncc2CN1Cc1ccc(OC)cc1 (stereo not given)	/	-2.6%	6%	/
O=NN1CCCCC1	/	-3.2%	-15%	/
COc1cc(C(=O)NN=Cc2ccc(N(CCCl)CCCl)cc2)cc(OC)c1OC	/	?	-21%	/
Cc1cccc(N2CCN(Cc3ccc4c(c3)OCO4)CC2)c1C	/	1.0%	-16%	1%
CCN(CC)C(=O)c1ccc(NC(=O)c2cccc(S(=O)(=O)N3CCN(C)CC3)c2)cc1	/	-1.7%	-3%	0%
CCS(=O)(=O)N1CCCC(C(=O)N2CCC3(CC2)OCCO3)C1 (stereo not given)	-10	-1.1%	-19%	0%
Cc1ccc2c(c1N)C(=O)c1ccccc1C2=O	/	3.0%	11%	/
O=C1NC(=O)C(Cc2cccs2)C(=O)N1	4	-0.5%	-5%	-5%
CC(C)(C)NC(=S)/N=C(\N)N[N+](=O)[O-]	-4	-2.4%	7%	3%
CC(C)N(CC(O)c1cccc([N+](=O)[O-])c1)C(C)C (stereo not given)	-10	4.9%	-15%	-4%
CC1=C2[C@H]3OC(=O)[C@@H](C)[C@@H]3CC[C@@]2(C)C=CC1=O	-3	-0.5%	1%	/
CCOC(=O)c1c(/N=C/c2c(O)n(-c3ccc(F)cc3)c(=S)[nH]c2=O)sc2c1CCCC2	9	-2.5%	?	-4%
C=CCN(CC=C)Cc1c[nH]c2ccccc12	1	-3.6%	-28%	-1%
CCOC(=O)c1cnc(SCc2ccc(Cl)c(Cl)c2)nc1N1CC1	/	0.3%	-2%	/
The listing continues.
SMILES	GLA inh pH 4.5	Rango complex inh	Rango dissoc inh	miR-21 reporter
O=c1[nH]c(=O)n(Cc2ccc(F)cc2)c(O)c1C=Nc1ccc(Cl)cc1	8	1.5%	-3%	1%
CC(=O)Nc1cccc([As](=O)(c2cccc(NC(C)=O)c2)c2cccc(NC(C)=O)c2)c1	1	-0.6%	8%	-4%
C=CCn1c(O)c(/C=C2/C=c3ccccc3=N2)c(=O)[nH]c1=S	/	-3.1%	-3%	2%
COc1ccccc1OC(=O)c1ccc(C)c(S(=O)(=O)N2CCOCC2)c1	/	-1.2%	1%	4%
CCCc1nc2ccccc2c(=O)n1-c1ccccc1OC	0	-0.7%	6%	-8%
CC1=NNC(=O)C1Br (stereo not given)	/	?	-6%	/
Cc1ccc(Cc2c(C)nc3nc(SCC(=O)N4CCC5(CC4)OCCO5)nn3c2C)cc1	5	-0.5%	8%	2%
CC(=Nc1ccc(F)cc1)c1c(O)n(C)c(=O)[nH]c1=O	/	3.0%	44%	7%
COC(=O)c1ccccc1OC(=O)c1ccc(Br)o1	-5	?	2%	-3%
CN1C(=O)C(Cc2ccc(OCc3ccccc3)cc2)C(=O)N(C)C1=O	/	-0.1%	0%	-38%
OC(CN1CCOCC1)c1csc2ccccc12 (stereo not given)	/	0.7%	9%	/
COc1ccc2c(c1OC)C(=O)O[C@@H]2[C@H]1c2cc3c(cc2CCN1C)OCO3	/	1.1%	-14%	/
CN(C)C(=O)Oc1ccc(-c2nnco2)cc1	-1	2.7%	0%	-8%
CCN1CCN(Cc2ccc(C)cc2)CC1	-12	-2.0%	-9%	-3%
CN1CCN(Cc2cc(=O)n3ccsc3n2)CC1	/	0.7%	-8%	-3%
O=C(CCC(=O)N1C[C@H]2C[C@@H](C1)c1cccc(=O)n1C2)NCc1ccccc1C(F)(F)F	/	-1.6%	-15%	/
CC(C)(C)NCC(O)c1cc(Cl)c(N)c(Cl)c1 (stereo not given)	9&-3	-1.8%	-15%	-16%
CCc1ccc(CN2CCN(Cc3ccc(SC)cc3)CC2)cc1	-11	5.0%	2%	21%
COC(=O)C1=C(c2ccc(C(C)=O)cc2)C[C@@H]2CC[C@H]1N2C(=O)NCCNC(C)=O	/	-1.4%	-18%	/
CC1CCN(c2cc(Br)c([N+](=O)[O-])cc2F)CC1	6	3.0%	-9%	-5%
CC(=O)Nc1ccccc1C(=O)OCC(=O)c1ccc2ccccc2c1	10	-2.1%	-12%	-8%
COc1ccc(CCN(C)Cc2ccc(F)cc2F)cc1OC	-2	4.3%	2%	-1%
CN1CC(C#N)C2(O)c3ccccc3CCC2C1 (stereo not given)	/	3.9%	-3%	1%
C[C@]12CCC3C(C1CCC2=O)[C@H](O)C[C@H]1C[C@@H](O)CC[C@]31C (stereo not given in full)	/	-1.7%	?	/
CCCNC(=O)c1c(N)n(CC2CCCO2)c2nc3ccccc3nc12 (stereo not given)	?	?	?	5%

Quoted from the listing:
For Rango dissoc inh, CN1CC(C#N)C2(O)c3ccccc3CCC2C1 (stereo not given) shows -3%
For Rango complex inh, CCOC(=O)c1cnc(SCc2ccc(Cl)c(Cl)c2)nc1N1CC1 shows 0.3%

Single records (already shown). Values in the order: GLA inh pH 4.5 | Rango complex inh | Rango dissoc inh | miR-21 reporter
Entry for COc1ccccc1OC(=O)c1ccc(C)c(S(=O)(=O)N2CCOCC2)c1 → / | -1.2% | 1% | 4%
Entry for C[C@]12CCC3C(C1CCC2=O)[C@H](O)C[C@H]1C[C@@H](O)CC[C@]31C (stereo not given in full) → / | -1.7% | ? | /
Entry for CN1CCN(Cc2cc(=O)n3ccsc3n2)CC1 → / | 0.7% | -8% | -3%
Entry for COC(=O)C1=C(c2ccc(C(C)=O)cc2)C[C@@H]2CC[C@H]1N2C(=O)NCCNC(C)=O → / | -1.4% | -18% | /

Other entries:
SMILES	GLA inh pH 4.5	Rango complex inh	Rango dissoc inh	miR-21 reporter
O=c1[nH]c2c(c(=O)n1C1CCCCC1)CCC2	2	4.7%	21%	-7%
OC1/C(=C/c2ccccc2F)N2CCC1CC2 (stereo not given)	-1	-3.2%	19%	0%
Oc1cccc2nc3ccccc3nc12	-12	-0.8%	3%	-6%
CCOc1cc2[nH]c(=S)n(CCCC(=O)N3CCC4(CC3)OCCO4)c(=O)c2cc1OCC	-1	-0.2%	3%	-1%
CCOc1ccc(CN(CCCl)CCCl)cc1C(=O)OC	12	0.8%	6%	-6%
CCOC(=O)COc1ccc(/C=C2\C(=O)NC(=S)N(c3ccc(OC)cc3)C2=O)cc1OC	/	0.7%	1%	-4%
N#CC1=C(N)Oc2c(c(=O)sc3ccccc23)C1c1ccncc1 (stereo not given)	-4	-2.0%	-4%	12%
N#CC(c1ccc(Cl)nn1)c1c(F)cccc1Cl (stereo not given)	9	?	-10%	1%
Cc1ccccc1C1=NCC(=O)N(CC(=O)NCc2ccco2)c2sc3c(c21)CCCC3	7	6.9%	-6%	-6%
CC(C)c1ccc(N2C(=O)NC(=O)/C(=C/c3cnc(-c4ccccc4)nc3)C2=O)cc1	10	2.5%	1%	-15%
COc1ccc(C2(C#N)CC[N+](C)(C)CC2)cc1	0	0.2%	5%	-4%
CC12CCC3c4ccc(OP(=O)(N5CC5)N5CC5)cc4CCC3C1CCC2=O (stereo not given)	/	-1.9%	1%	/
O=C1NC(=S)NC(=O)C1=Cc1cccc2cc3ccccc3cc12	-4	?	?	-10%
COC(=O)C1=C(c2ccc(C(C)=O)cc2)C[C@@H]2CC[C@H]1N2C	/	0.1%	-9%	/
O=C(/C=C/c1ccccc1)c1c(O)n(CCc2ccccc2)c(=O)[nH]c1=O	-3	4.3%	7%	-3%
CC1(C)CC(=O)C(C=NCCN2CCN(C(=O)Cc3ccc(F)cc3)CC2)=C(O)C1	4	1.1%	-11%	3%
O=C(CN1CC(c2ccccc2)CC1=O)Nc1ccccc1 (stereo not given)	-8	1.5%	-29%	1%
O=S(=O)(O)C(=Cc1ccccc1)c1ccccc1 (tested in a mixture with another compound)	/	0.3%	4%	/
O=C(Cn1nc(Cc2cccnc2)c2ccccc2c1=O)N1CCC2(CC1)OCCO2	0	-5.0%	-3%	-4%
CCN1C(=O)C(=Cc2c(C)n(CC(=O)NCC3CCCO3)c3ccccc23)C(=O)N(CC)C1=S (stereo not given)	/	?	-12%	0%
O=c1[nH]c(O)c(C=Nc2ccccc2Oc2ccccc2)c(=O)[nH]1	1	-3.9%	10%	7%
C[n+]1ccc(-c2cc[n+](C)cc2)cc1	/	-1.8%	11%	/
O=C1NC(=O)N(Cc2ccccc2)C(=O)/C1=C\C=C\c1ccco1	-2	?	?	26%
COC(=O)C1=C(c2ccccc2OCc2ccccc2)C[C@@H]2CC[C@H]1N2C(=O)NCc1ccc(OC)cc1	/	0.4%	0%	/
Cc1cccc(C(=O)NC(Oc2ccccc2)C(Cl)(Cl)Cl)c1 (stereo not given)	3	-4.2%	6%	-9%
Next section:
SMILES	GLA inh pH 4.5	Rango complex inh	Rango dissoc inh	miR-21 reporter
CC(=O)OC1C(=O)OCC23CCC4(C)OC4C2OC2CC(OC(=O)C=CC=CC(=O)OCCC1C)C3(C)C21CO1 (stereo not given)	/	0.5%	1%	/
O=C1NC(=O)N(c2ccc3c(c2)OCO3)C(=O)/C1=C\c1ccc(-c2ccccc2C(=O)O)o1	-3	-2.7%	-29%	-1%
CN1C(=O)C(=Cc2c(OCc3cnc(Cl)s3)ccc3ccccc23)C(=O)N(C)C1=O	-1	2.2%	0%	-31%
C#CCN[C@H](C)Cc1ccccc1	6	-0.6%	9%	/
O=S(=O)(NC1CCCCCCC1)OCC(Cl)(Cl)Cl	/	2.6%	-8%	-8%
CCC(Oc1cc(Cl)ccc1Cl)C(=O)N1CCC2(CC1)OCCO2 (stereo not given)	/	-1.6%	0%	-53%
C=CCN1C(=O)CSc2ccc(C(=O)N3CCC4(CC3)OCCO4)cc21	12	1.5%	-6%	0%
COC(=O)C1=C(c2ccc(F)cc2F)C[C@@H]2CC[C@H]1N2C(=O)NCCO	/	2.6%	-14%	/
O=c1[nH]c(=O)n(-c2ccccc2)c(O)c1C=NC12CN3CN(CN(C3)C1)C2	-4	/	/	-2%
Cc1ccc[n+](CC(O)Cn2c3ccccc3c3ccccc32)c1 (stereo not given)	2	0.1%	6%	-7%
Cc1cc(C)cc(N2C(=O)/C(=C\c3ccc(N4CCN(C)CC4)o3)C(=O)NC2=S)c1	-3	52µM*	?	-4%
COc1ccc(Cn2c(N)c(C(=O)NCc3ccco3)c3nc4ccccc4nc32)cc1	3	?	?	6%
c1ccc(CCn2nnnc2CN2CCC(n3nnc4ccccc43)CC2)cc1	4	4.9%	7%	-15%
O=C1c2ccccc2C(=O)N1Cc1nc2ccccc2c(=O)n1-c1ccc(Br)cn1	5	2.3%	7%	0%
Cc1ccccc1NP(=O)(Oc1ccccc1F)Oc1ccccc1F	?	-1.7%	2%	1%
O=C([O-])c1ccc(-[n+]2c(-c3ccccc3)cc(-c3ccccc3)cc2-c2ccccc2)cc1	/	0.0%	-1%	/
c1ccc(CCNCc2cccnc2)cc1	/	-1.0%	-7%	-10%
Brc1ccc(Oc2ccc(Br)cc2Br)c(Br)c1	/	-1.0%	26µM*	/

High-throughput results from PubChem.
